RE007 growth inh: less growth of the S. pombe RE007 Vpr strain | S. pombe RE007 Vpr strain, BacTiter-Glo ATP luminescence, 24 h; control for the full effect not named in the record | Potency, µM (highest dose often 92.2 µM), for inactives: at the highest dose activity change, negative = less growth | hit rate 0.21% among 360,000; active = well fitted falling curve with a large enough effect; inconclusive = small, poorly fitted or top-dose-only effect; inactive = no such curve, though single readings can be large or run the other way;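 note: % is set by controls: 0 for no effect and ±100 for the full control effect; nearly all actives have a fitted effect of over 50% in size; the assay follows cell death caused by Vpr and the record does not say whether a fall means rescue or toxicity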
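Fission yeast strain RE007, carrying one chromosomally integrated HIV-1 vpr copy, was seeded at OD 0.01 in PMG+AL medium with 23 nL pinned compound. After 24 h at 30 °C and 99% humidity, viability was read by BacTiter-Glo luminescence.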
2A StopGo: lowers the luciferase signal of an FMDV 2A StopGo reporter | Potency, µM (series often up to 57.9 µM), for inactives: top-dose signal change, negative = less light | AID 1159524 | hit rate 1.2% among 410,000 | human cells with a luciferase reporter of 2A StopGo recoding; control for the full effect not named in the record; active = well fitted falling curve with a large enough effect; inconclusive = small, poorly fitted or top-dose-only effect; inactive = no such curve, though single readings can be large or run the other way; tested in HEK293T cells; note: % is set by controls: 0 for no effect and ±100 for the full control effect; nearly all actives have a fitted effect of over 45% in size; luciferase light after 4 h
Cruzain inh Det: inhibitors of Trypanosoma cruzi cruzain with detergent. P25779. purified cruzain, Z-FR-AMC fluorescence, 0.01% Triton. Potency, µM, for inactives: max response, negative = inhibition, hits mostly inhibitors. hit rate 0.43% among 200,000. AID 1478; active = well fitted curve in the direction sought with a large enough effect; inconclusive = small, poorly fitted or top-dose-only effect, or another doubt; inactive = no such curve, though single readings can be large; an effect the other way counts as inactive or inconclusive;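 note: plate controls were neutral wells for no effect and buffer without enzyme for full effect; nearly all actives have a fitted effect of over 40% in size; top concentration of the series not given in the record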
Target sequence (P25779 123-467 limits assumed): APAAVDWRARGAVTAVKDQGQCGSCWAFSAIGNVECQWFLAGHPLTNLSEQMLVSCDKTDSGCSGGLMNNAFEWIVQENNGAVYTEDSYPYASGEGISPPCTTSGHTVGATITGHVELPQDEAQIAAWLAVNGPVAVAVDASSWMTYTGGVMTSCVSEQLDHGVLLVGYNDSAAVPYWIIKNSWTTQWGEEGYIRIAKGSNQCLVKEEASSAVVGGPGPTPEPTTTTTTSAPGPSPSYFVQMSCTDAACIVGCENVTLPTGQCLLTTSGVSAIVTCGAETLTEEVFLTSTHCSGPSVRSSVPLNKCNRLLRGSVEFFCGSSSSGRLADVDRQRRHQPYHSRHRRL
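Detergent-containing arm of a paired screen for aggregation-based inhibition: 0.01% Triton X-100 present. Cruzain at 1.5 nM cleaved 2 uM Z-FR-AMC at pH 5.5 with 5 mM DTT; AMC fluorescence gain over 60 s measured activity.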
NS1 function inh: blocks influenza NS1 protein function | Potency, µM (titrated, usually from 46.1 µM), inactives show at the highest dose activity, positive = more growth | S. cerevisiae slowed by influenza A NS1, growth recovery by OD600 | hit rate 0.4% among 270,000; note: actives are rising curves; nearly all actives have a fitted effect of over 50% in size
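S. cerevisiae expressing influenza A NS1, grown in glucose, washed, then diluted 1:100 into pH 6.0 -URA galactose medium with 23 nl compound. Growth recovery read as OD600; NS1-free strain serves as control.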
MARV entry inh: inhibitors of Marburg virus binding or cell entry; Potency, µM (highest dose often 37.8 µM), without a hit: at the top dose activity change, negative = inhibition, usual class: inhibitors; Marburg virus pseudotyped entry inhibition, cell reporter; control for the full effect not named in the record; about a third of the inactives were read at about 46 µM; hit rate 1.8% among 300,000; AID 540276; active = well fitted inhibition curve with a large enough effect; inconclusive = small, poorly fitted or top-dose-only effect, or effect the other way; inactive = flat fitted curve, though single readings scatter; tested in HEK293 cells; about a fifth of its hits are not listed in these tables; note: % is set by controls: 0 for no effect and ±100 for the full control effect; luciferase read-out
LASV entry inh: Lassa virus entry inhibition; Lassa virus pseudotype entry inhibition, cell reporter; control for the full effect not named in the record; Potency, µM (doses to about 37.9 µM), without a hit: at the top dose activity change, negative = inhibition, most hits filed as inhibitors; hit rate 1.2% among 300,000; active means well fitted inhibition curve with a large enough effect; inconclusive means small, poorly fitted or top-dose-only effect, or effect the other way; inactive means flat fitted curve, though single readings scatter; tested in HEK293 cells; note: % is set by controls: 0 for no effect and ±100 for the full control effect; nearly all actives have a fitted effect of over 50% in size; luciferase read-out
SARS PLP yeast: SARS-CoV PLP inhibition in yeast | S. cerevisiae expressing SARS-CoV PLpro, growth rescue; control for the full effect not named in the record | AID 485353 | Potency, µM (doses to about 32.9 µM), without a hit: at the top dose activity, positive = growth rescue | hit rate 0.19% among 330,000; note: 0% is about no effect; nearly all actives have a fitted effect of over 55% in size; growth read by luminescence after 48 h
Cruzain noTriton: blocks cruzain activity in detergent-free assay; Potency, µM, without a hit: max response, negative = inhibition, usual class: inhibitors; P25779; purified cruzain, Z-FR-AMC fluorescence, no detergent; hit rate 2.3% among 200,000; active = well fitted curve in the direction sought with a large enough effect; inconclusive = small, poorly fitted or top-dose-only effect, or another doubt; inactive = no such curve, though single readings can be large; an effect the other way counts as inactive or inconclusive;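 note: plate controls were enzyme without inhibitor for no effect and buffer without enzyme for full effect; nearly all actives have a fitted effect of over 40% in size; top concentration of the series not given in the record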
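Purified cruzain at 1.5 nM, pre-incubated 15 min with compound at room temperature in 100 mM sodium acetate pH 5.5, 5 mM DTT, 0.00005% Triton X-100. Reaction started with 2 uM Z-FR-AMC; AMC fluorescence increase over 60 s gives rate.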
Active calls of the source: *; ? = inconclusive; . = not tested or not shown; [ ] = dose if it differs, or a comment. Unless noted, calls come from the whole dose curve; as a rule, active means well fitted rising curve with a large enough effect; inconclusive means small, poorly fitted or top-dose-only effect; inactive means no such curve, though single readings can be large or run the other way. Potency is the fitted concentration of half-maximal effect.

SMILES | RE007 growth inh | 2A StopGo | Cruzain inh Det | NS1 function inh | MARV entry inh | LASV entry inh | SARS PLP yeast | Cruzain noTriton
CCCCN(C(=O)C1CC(=O)N(c2ccc(OC)cc2OC)C1)c1c(N)n(CC(C)C)c(=O)[nH]c1=O (configuration not stated) | 3% | -9% | . | 6% | 11% | ? | ? | .
CC(=NCc1ccco1)c1c(O)n(C)c(=O)n(C)c1=O | 3% | -23% | 6.3% | -75% | -9% | -11% | 9% | 1%
Cc1ccc(Nc2cc(C(=O)NCCc3ccccc3)c3ccccc3n2)c(C)c1 | . | -19% | -12% | . | 2%[46.1 µM] | 0%[46.1 µM] | . | 11%
N#Cc1c2n(c(=S)n(-c3ccccc3[N+](=O)[O-])c1=O)CCCCC2 | -13% | -16% | . | . | ? | -20% | -1% | .
COc1ccc(CNC(=O)Cn2nnc(-c3ccc(NC(=O)C4CCCCC4)cc3)n2)cc1 | -20% | 31%[activator] | 3.0% | 8% | ? | -11% | 17% | 10µM*
CCOC(=O)c1sc(NC(C)=O)nc1C | 4% | . | -0.9% | -4% | ? | -15% | -3% | 2%
CCOC(=O)Cc1csc(NC(=S)NC(=O)c2cccc([N+](=O)[O-])c2)n1 | 4% | -26% | -1.8% | 9% | ? | ? | 2% | ?
CCOc1cc(/C=N/NC(=O)Cn2nc([N+](=O)[O-])cc2C)cc(Br)c1OCc1ccccc1C | -10% | -27% | -3.7% | 16% | ? | ? | 0% | -10%
O=C(NC1CCCC1)c1ccc2c(=O)n(Cc3ccccc3)c(SCc3ccc([N+](=O)[O-])cc3)nc2c1 | . | -7% | 0.2% | . | . | ? | . | -7%
CCOc1ccc(N2C(=O)Nc3ccccc3C2(O)C(=O)NCc2ccc(C)cc2)cc1 (configuration not stated) | 6% | -1% | . | . | 7%[46.1 µM] | -1% | 4% | .
Cc1ccsc1C(=O)NCC(=O)OCc1ccccc1 | 16% | 19% | . | -12% | ? | -3%[46.1 µM] | -10% | .
Cc1ccc(/C=N/NC(=O)C(NC(=O)c2ccccc2)c2n[nH]c(=O)c3ccccc23)cc1 (configuration not stated) | 3% | 19% | -8.3% | 24% | ? | -28% | -2% | -6%
Cc1cc(NC(=O)Cn2nnc(-c3ccccc3NC(=O)c3ccccc3F)n2)no1 | 17% | -11% | . | -16% | -3%[46.1 µM] | 0% | 8% | .
COc1ccc(C(c2c(O)nc(SC)n(C)c2=O)c2c(O)nc(SC)n(C)c2=O)cc1O | -10% | -5% | 2.3% | 20% | 2% | 2% | 10% | 4%
Cc1cc(Oc2ccccc2)nc(OCC#N)n1 | 6% | 19% | 5.7% | 0% | 0% | 3% | 1% | 5%
N#Cc1c(N)nc(N)nc1Nc1ccc(Br)cc1 | 6% | 24% | . | -3% | ? | 1%[46.1 µM] | -1% | .
O=C(O)CCc1ccc(-c2ccc(Br)cc2)n1-c1cccc(O)c1 | -11% | -2% | . | -3% | . | . | -1% | .
CCOC(=O)Nc1sc(NS(=O)(=O)c2ccccc2)nc1C | 18% | 53%[activator] | -5.0% | 6% | 17% | 16% | 2% | 2%
Cc1ccc(-c2nc(NC(=O)c3nn(C)cc3[N+](=O)[O-])sc2C)cc1C | -5% | 13µM* | 2.2% | -1% | ? | 4µM* | 14% | 15%
CCCCCn1c(N(C)Cc2ccccc2)nc2c1c(=O)[nH]c(=O)n2C | 9% | ? | -2.7% | -38% | . | . | -2% | 1%
O=[N+]([O-])c1cc(Br)c2nsnc2c1N1CCOCC1 | -7% | -26% | . | -36% | -13%[46.1 µM] | -2%[46.1 µM] | 2% | .
CCCCNc1nc2ccccc2n1CC(=O)N1CCc2ccccc2C1 | -3% | -16% | -2.8% | -3% | -10% | -6% | 3% | 8%
O=C1c2ccccc2NC(c2ccccn2)N1c1ccc(Cl)cc1 (configuration not stated) | 0% | 43%[activator] | -5.0% | -9% | 3% | ? | 1% | -12%
CC1CN=C(NCc2ccncc2)S1 (configuration not stated) | -19% | -26% | 1.2% | -3% | 1% | 8% | -3% | 16%
O=C(NC1CCN(C(=O)Nc2ccc(F)cc2)CC1)c1ccccc1F | 2% | -8% | . | 7% | -9%[46.1 µM] | 23% | -7% | .
O=C(NCc1ccco1)c1ccc2c(=O)n(CCC3=CCCCC3)c(=O)[nH]c2c1 | 9% | -4% | -0.1% | 6% | ? | 12% | -14% | 16µM*
CCOC(=O)Nc1ccc2c(c1)N(C(=O)N1CCN(C)CC1)c1ccccc1CC2 | 19% | -2% | . | 2% | . | . | -1% | .
Cc1ccnc(NC(=O)CCC(=O)N(CC(=O)NCCc2ccccc2)Cc2ccco2)c1 | 8% | -18% | 0.4% | -5% | -11%[46.1 µM] | -12% | -1% | 12%
CC(=O)Nc1cccc(/C(C)=N/Nc2nc3ccccc3s2)c1 | -5% | -42% | . | -10% | ? | ? | -4% | .
CCCCn1c(N)c(N(CC(C)C)C(=O)c2c(CC)noc2C)c(=O)[nH]c1=O | -13% | 8% | . | . | 1% | 8% | 2% | .
CC(C)(C)NC(=O)CN(C(=O)CS(=O)CC(=O)Nc1ccc(F)cc1)c1ccc(Cl)cc1 (configuration not stated) | -17% | -5% | -4.5% | -18% | -7% | 7% | 2% | ?
CS(=O)(=O)Nc1ccc(C(=O)N2CCN(c3ccccc3F)CC2)cc1 | 10% | 4% | 1.7% | 4% | -7% | -1% | -4%[6.58 µM] | 8%
Cc1ccc(N=C2NC(=O)/C(=C/c3cccn3C)S2)cc1C | -15% | 31%[activator] | . | 7% | ? | ? | 0% | .
CSc1nc(-c2ccc(F)cc2)cc(=O)[nH]1 | -6% | -14% | -2.5% | -3% | -1% | 12% | 7% | 5%
COc1cccc2sc(NNC(=O)c3nc4ccccc4s3)nc12 | -13% | -13% | 3.2% | -3% | -11% | -4% | -36% | ?
CC(C)Oc1ccccc1-c1nc(SCC(=O)c2ccc(F)cc2)n[nH]1 | . | -15% | -5.7% | . | ? | 6%[46.1 µM] | . | 18%
NS(=O)(=O)c1ccc(CCNCc2cc(Br)ccc2OCc2ccccc2F)cc1 | -5% | ? | . | . | ? | ? | 5% | .
CC(=O)CSc1ncnc2c1cnn2-c1ccccc1 | -16% | 27% | . | . | ? | -7% | -1% | .
CCCCNC(=S)NNC(=O)c1c(C)nc2ccccn12 | 22% | -5% | . | -5% | 23%[46.1 µM] | 9% | 3% | .
COc1ccc(-c2nc3ccccc3c(=O)n2-c2ccc(OC)cc2)cc1 | 5% | -23% | . | -7% | 19%[46.1 µM] | -25%[46.1 µM] | 0% | .
Cc1ccc(S(=O)(=O)N2CCN(C(=O)COC(=O)CCOc3ccc(C(C)(C)C)cc3)CC2)cc1 | 2% | 0% | . | . | -7%[46.1 µM] | -7% | 5% | .
Cc1sc(NC(=O)C2CC(Cl)=CCC2C(=O)O)c(C#N)c1C (configuration not stated) | 2% | 16% | . | -2% | 16%[46.1 µM] | -7%[46.1 µM] | 2% | .
CC1CN(c2ccc([N+](=O)[O-])cc2C#N)CC(C)O1 (configuration not stated) | -6% | 1% | . | 3% | -22%[46.1 µM] | -8%[46.1 µM] | 3% | .
CCCCN(C)C(=O)CSc1nc2ccccc2nc1Cc1ccc(C)cc1 | . | -20% | -9.3% | . | . | -22%[46.1 µM] | . | -11%
Cc1ccc(S(=O)(=O)N2CCOCC2)cc1C(=O)OC1CCOC1=O (configuration not stated) | 10% | -18% | . | . | 17% | 3% | 0% | .
Oc1ccccc1Oc1ncc(Br)c(Cl)n1 | 1% | -27% | . | 10% | . | . | -2% | .
O=C(Cn1c(SCc2cccc(F)c2)nc2ccncc21)Nc1ccc(Cl)cc1F | . | -18% | -20% | . | 0%[46.1 µM] | 22%[46.1 µM] | . | 7%
CCOc1ccc(Cc2nnc(SCC(=O)Nc3ccccc3)n(N)c2=O)cc1 | 13% | 4% | . | . | -2%[46.1 µM] | ? | 1% | .

Ordered by count of non-hydrogen atoms (lowest first): some entries from above
SMILES | RE007 growth inh | 2A StopGo | Cruzain inh Det | NS1 function inh | MARV entry inh | LASV entry inh | SARS PLP yeast | Cruzain noTriton
Oc1ccccc1Oc1ncc(Br)c(Cl)n1 | 1% | -27% | . | 10% | . | . | -2% | .
Cc1sc(NC(=O)C2CC(Cl)=CCC2C(=O)O)c(C#N)c1C (configuration not stated) | 2% | 16% | . | -2% | 16%[46.1 µM] | -7%[46.1 µM] | 2% | .
CCCCN(C)C(=O)CSc1nc2ccccc2nc1Cc1ccc(C)cc1 | . | -20% | -9.3% | . | . | -22%[46.1 µM] | . | -11%
CCOc1ccc(Cc2nnc(SCC(=O)Nc3ccccc3)n(N)c2=O)cc1 | 13% | 4% | . | . | -2%[46.1 µM] | ? | 1% | .

The list continues.
SMILES | RE007 growth inh | 2A StopGo | Cruzain inh Det | NS1 function inh | MARV entry inh | LASV entry inh | SARS PLP yeast | Cruzain noTriton
COC(c1ccccc1)c1nnc(CCC(=O)N2CCN(CCOc3ccccc3)CC2)o1 (configuration not stated) | 2% | 10% | . | -2% | -17%[46.1 µM] | -19%[46.1 µM] | 0% | .
O=C(Nc1ccc(Br)cc1F)c1ccc2nsnc2c1 | 5% | 11% | . | -12% | . | . | 17% | .
COCCn1c(C23CC4CC(CC(C4)C2)C3)n[nH]c1=S | 17% | -17% | -3.9% | -8% | 2% | -18% | 9% | 2%
COc1ccc(CNC(=O)CCN2C(=O)[C@@H]3Cc4ccccc4CN3C2=O)cc1 | 8% | 6% | . | 2% | ? | -12%[46.1 µM] | 5% | .

Assay outcomes deposited in PubChem by National Center for Advancing Translational Sciences (NCATS).

Compounds were not picked by outcome. Share with any hit: about 4.7%.
